High-throughput results (PubChem BioAssay)
Polio RdRp inh – poliovirus RNA polymerase inhibition; P03300; AID 588519; % elongation, % (compound at 16.7 µg/mL); 0.66% of 150,000 active; poliovirus polymerase elongation, fluorescence polarization; active compounds read low; in the data active = % elongation below about 90%; note: some results filed as inactive read as strong as hits
Target sequence (P03300 1749-2209 limits assumed): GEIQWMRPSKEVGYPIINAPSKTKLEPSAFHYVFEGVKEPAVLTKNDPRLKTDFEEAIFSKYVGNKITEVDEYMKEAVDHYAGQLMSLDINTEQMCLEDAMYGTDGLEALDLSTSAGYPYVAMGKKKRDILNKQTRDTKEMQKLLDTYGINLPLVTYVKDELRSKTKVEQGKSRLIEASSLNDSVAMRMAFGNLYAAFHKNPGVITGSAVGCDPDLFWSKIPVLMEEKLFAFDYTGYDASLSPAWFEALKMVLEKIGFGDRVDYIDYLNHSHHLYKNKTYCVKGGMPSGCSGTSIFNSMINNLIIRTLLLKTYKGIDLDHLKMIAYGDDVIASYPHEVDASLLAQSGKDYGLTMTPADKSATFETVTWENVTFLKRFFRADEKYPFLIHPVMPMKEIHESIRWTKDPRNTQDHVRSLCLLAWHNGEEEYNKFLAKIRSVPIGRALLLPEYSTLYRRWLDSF
Polio RdRp inh intensity – also measured in Polio RdRp inh; calls as there; % elongation; measured here: total intensity read-out; formula for this scale not given here;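 total fluorescence in place of polarization; lower means less elongation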
The depositor's hits bear a star. The list is partial; the hit share may differ from the screen's.

structure | Polio RdRp inh | Polio RdRp inh intensity
COc1ccc(N2CCN(C(=O)CSc3nc(-c4ccccc4)no3)CC2)cc1 | 113.0 | 112.0
N#C/C(=C\c1ccc(Br)cc1)c1nc(-c2cc3cc(Br)ccc3oc2=O)cs1 | 106.0 | 112.0
O=C(NCCCN1CCN(c2ccc(F)cc2)CC1)c1cc2c(Cl)nc3ccccc3c2s1 | 106.0 | 108.0
CCCS(=O)(=O)N1CCC(n2c(C)nc3cccnc32)CC1 | 103.0 | 106.0
CC(C)Oc1ccc(CN2CCc3nc(Nc4ccc5c(c4)OCCO5)ncc3C2)cc1 | 107.0 | 113.0
COc1ccc(CC(=O)Nc2c(C(=O)Nc3ccc(F)cc3)oc3ccccc23)cc1OC | 106.0 | 111.0
CC(=O)C1=C(c2ccc(Cl)c(Cl)c2)N(C(C)=O)n2c(C)nnc2S1 | 89.0 | 87.0
CCc1nn2c(=O)cc(COC(=O)CNC(=O)c3ccccc3)nc2s1 | 105.0 | 102.0
CCCOc1ccc(CNC(=O)CN2C(=O)c3cccnc3Oc3ccc(C)cc32)cc1 | 105.0 | 102.0
CNS(=O)(=O)c1cn(CC(=O)N2CCN(c3cccc(C)c3C)CC2)cc1S(=O)(=O)NC | 101.0 | 104.0
Cc1nn2c(=O)cc(COC(=O)c3cccc(NC(=O)c4cccs4)c3)nc2s1 | 101.0 | 107.0
Cc1ccc(C(=O)Nc2nnc(S(=O)(=O)N3CCN(c4ccc(F)cc4)CC3)s2)cc1 | 109.0 | 111.0
COc1ccc(NC(=O)CC2C(=O)N(c3ccc(F)cc3)C(=O)N2Cc2ccc3c(c2)OCO3)cc1 (stereo not given) | 106.0 | 105.0
Cc1cc(C)nc(-n2nc(C)c3c2NC(=O)CC3c2cccc(O)c2)n1 (stereo not given) | 110.0 | 112.0
Cc1ccc(Cl)cc1-n1ncc2c(N3CCN(Cc4ccccc4)CC3)ncnc21 | 105.0 | 105.0
CCCNc1ncnc2onc(C)c12 | 101.0 | 104.0
CCCCOc1ccc(C(=O)Nc2ccc3c(c2)CCCN3C(=O)c2cccs2)cc1 | 109.0 | 112.0
COc1cc(C(=O)Nc2ccc(OCc3cc(=O)n4cccc(C)c4n3)cc2)cc(OC)c1OC | 105.0 | 95.0
O=C(COCc1cc(-c2ccco2)on1)Nc1cc(Cl)ccc1O | 112.0 | 112.0
Cc1cccc(C)c1N1CC(c2nc3ccccc3n2CC(=O)OC(C)C)CC1=O (stereo not given) | 113.0 | 114.0
CCOc1ccc(/C=C(\C#N)C(=O)Nc2sc3c(c2C(=O)OC)C(C(=O)OC)CC3)cc1OC (stereo not given) | 73.0* | 74.0*
Cc1oc(-c2cccc(Br)c2)nc1Cn1c(SCc2cccc(F)c2)nc2cccnc21 | 112.0 | 114.0
COc1ccc(-c2nnc(SCCOc3ccccc3C)o2)cc1OC | 110.0 | 111.0
Cc1ccc(C2=NC(c3ccc(F)cc3)=Nc3ccc(C)cc3N2)cc1 | 108.0 | 105.0
COc1ccc(NC(=O)CSc2oc(-c3ccc(C)cc3)nc2S(=O)(=O)c2ccc(C)cc2)c(OC)c1 | 102.0 | 103.0
COc1ccc(NC(=O)COCc2cc(-c3ccc4c(c3)OCO4)on2)cc1 | 106.0 | 111.0
O=C(NCc1ccc(Cl)cc1)c1ccc(CSCc2cccc(Cl)c2)o1 | 91.0 | 88.0
CC(C)c1ccc(CNCCSc2nnnn2-c2ccccc2)cc1 | 107.0 | 101.0
COc1ccc(C(CC(=O)Nc2cc(Cl)c(OC)cc2OC)N2Cc3ccccc3C2=O)cc1 (stereo not given) | 100.0 | 107.0
Cc1ccc(OCC(=O)Nc2sc3c(c2C(N)=O)CCCC3)c(C(C)(C)C)c1 | 108.0 | 108.0
CCOc1ccc(S(=O)(=O)NCC(c2ccc(N(C)C)cc2)N2CCCC2)cc1 (stereo not given) | 111.0 | 108.0
Cc1ccc(CNC(=O)C2CCN(S(=O)(=O)c3cn(C)cn3)CC2)cc1 | 98.0 | 104.0
Cc1cc(C)c(NC(=O)C2CCCN(C(=O)c3cnn(-c4ccccc4)c3-n3cccc3)C2)c(C)c1 (stereo not given) | 107.0 | 110.0
COCC(=O)Nc1cccc(-c2nc3cccnc3s2)c1 | 101.0 | 107.0
CCC(=O)N1CCc2cc(Br)cc(S(=O)(=O)N3CCC(C(=O)NCCCOC(C)C)CC3)c21 | 108.0 | 107.0
CCOC(=O)c1[nH]c2ccccc2c1NC(=O)c1ccc(C)c(C)c1 | 103.0 | 106.0
Cn1c(=O)c2c(ncn2Cc2ccc(Cl)cc2)n(C)c1=O | 113.0 | 112.0
COc1cc(C(=O)NCC(c2ccco2)S(=O)(=O)c2cccs2)cc(OC)c1OC (stereo not given) | 115.0 | 107.0
COc1ccc(NC(=O)CN2CCCN(S(=O)(=O)c3ccc(Br)cc3)CC2)c(OC)c1 | 103.0 | 105.0
Cc1ccc(OCC(=O)NCC(=O)OCc2cc(=O)n3nc(CC(C)C)sc3n2)cc1 | 111.0 | 108.0

Four compounds picked at random from those above, as already listed:
structure | Polio RdRp inh | Polio RdRp inh intensity
Cn1c(=O)c2c(ncn2Cc2ccc(Cl)cc2)n(C)c1=O | 113.0 | 112.0
COc1cc(C(=O)NCC(c2ccco2)S(=O)(=O)c2cccs2)cc(OC)c1OC (stereo not given) | 115.0 | 107.0
CC(C)c1ccc(CNCCSc2nnnn2-c2ccccc2)cc1 | 107.0 | 101.0
Cc1ccc(C2=NC(c3ccc(F)cc3)=Nc3ccc(C)cc3N2)cc1 | 108.0 | 105.0

Next part
Values run as follows: Polio RdRp inh	Polio RdRp inh intensity
- CCOC(=O)C1CCN(C(=O)C2CCN(c3nnc(C)c4c(C)n(-c5ccccc5)nc34)CC2)CC1
    116.0	115.0
- C=CCc1ccccc1OCCn1c(C2CC(=O)N(Cc3ccc(F)cc3)C2)nc2ccccc21 (stereo not given)
    109.0	115.0
- CCCN(C(=O)c1nn(-c2ccc(OC)c(Cl)c2)c(=O)c2c1c1ccccc1n2C)c1ccccc1F
    108.0	108.0
- CC(C)COc1ccc(C(=O)Nc2ccc(S(=O)(=O)Nc3ncccn3)cc2)cc1
    108.0	109.0
- COc1ccc(-c2cc(C(F)(F)F)n3nc(C(=O)NCC45CC6CC(CC(C6)C4)C5)cc3n2)cc1
    102.0	103.0
- COc1cccc(N(Cc2nnc3n2CCCCC3)C(=O)Nc2cccc(Cl)c2)c1
    105.0	110.0
- O=C(Nc1cc(C(F)(F)F)ccc1Cl)c1cc2nc(-c3ccc4c(c3)OCO4)cc(C(F)(F)F)n2n1
    109.0	110.0
- CC(=O)Nc1nonc1-c1nnc(SCC(=O)Nc2cc(C)cc(C)c2)n1C
    106.0	105.0
- Cc1cccc(-c2nc(SCCCOc3ccc(Cl)c(C)c3)n3[nH]c(=O)cc3n2)c1
    98.0	107.0
- Cc1ccc(OCCSc2nc3ccccc3n2CC(=O)N2CCOCC2)cc1C
    114.0	116.0
- Oc1ccc(Cl)cc1C1=Nc2ccccc2N=C(c2cccc(Br)c2)C1
    100.0	102.0
- COc1ccc(CNc2oc(/C=C/c3cccc(OC)c3)nc2C#N)cc1
    112.0	110.0
- CCc1nnc(SCC(=O)Nc2ccccc2Cl)nc1CC
    110.0	102.0
- CC(C)c1ccc(NC(=O)CN2C(=O)CN=C(c3ccccc3)c3ccccc32)cc1
    112.0	116.0
- CCN(CC)c1ccc(NC(=O)CCS(=O)(=O)c2cccc3nsnc23)c(C)c1
    99.0	101.0
- CCOC(=O)c1cc(S(=O)(=O)Nc2ccc(OC(F)(F)F)cc2)[nH]n1
    98.0	103.0
- CC1(C(=O)Nc2ncc(Cc3ccc(Br)cc3)s2)Cc2ccccc2C(=O)O1 (stereo not given)
    104.0	99.0
- COCCNC(=O)c1ccc(Cn2c(SCC(N)=O)nc3ccccc3c2=O)cc1
    98.0	105.0
- COc1ccc(-c2nc3n(n2)C(c2ccccc2OC)C(C(=O)Nc2cccnc2)=C(C)N3)cc1 (stereo not given)
    105.0	108.0
- CN1CCN(c2nc3c(S(=O)(=O)c4ccccc4)nnn3c3ccsc23)CC1
    112.0	109.0
- Cc1ccc(S(=O)(=O)c2nc(-c3ccc(Cl)cc3)oc2N2CCCCCC2)cc1
    101.0	106.0
- COc1cc(C)c(S(=O)(=O)Nc2cccc(-c3ccc(N4CCCC4)nn3)c2)cc1C
    106.0	109.0
- CCc1nn(CC(=O)NCc2ccc(OC)c(OC)c2)c(=O)c2cc3sc(C)cc3n12
    105.0	108.0

Some of the entries so far, with each value named.
CCOc1ccc(/C=C(\C#N)C(=O)Nc2sc3c(c2C(=O)OC)C(C(=O)OC)CC3)cc1OC (stereo not given)
- Polio RdRp inh: 73.0*
- Polio RdRp inh intensity: 74.0*
Cc1oc(-c2cccc(Br)c2)nc1Cn1c(SCc2cccc(F)c2)nc2cccnc21
- Polio RdRp inh: 112.0
- Polio RdRp inh intensity: 114.0
COc1ccc(-c2nnc(SCCOc3ccccc3C)o2)cc1OC
- Polio RdRp inh: 110.0
- Polio RdRp inh intensity: 111.0
Cc1ccc(C2=NC(c3ccc(F)cc3)=Nc3ccc(C)cc3N2)cc1
- Polio RdRp inh: 108.0
- Polio RdRp inh intensity: 105.0
